# DUX4 inh = inhibitors of DUX4-driven ZSCAN4 reporter expression, primary screen, 293T cells, Gaussia and Italica luciferase. 293T-iDUX4 ZSCAN4-Gaussia luciferase reporter, 24 h; stronger effect = lower value. activity change, negative = inhibition, % (concentration not given with the values). 0.8% of 37,000 active;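 active = -10% or lower and over 25 points stronger than a control reporter; inconclusive = -10% or lower with a smaller gap; inactive = above -10%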;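 note: 0% = median of neutral control wells and -100% = median of positive control wells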
# DUX4 inh difference = recorded beside DUX4 inh, whose call it bears; Gaussia minus Italica difference, %; measured here: selective DUX4 reporter inhibition;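 worked out from the two reporters; negative = selective loss of the DUX4 reporter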
# DUX4 inh control = further read-out of DUX4 inh, marked with its call; activity change, negative = inhibition, %; measured here: Italica tet-on control reporter;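 0 = neutral control and -100 = positive control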
# The depositor's hits bear a star; ? = inconclusive; . = not tested or not shown. The list is partial; count on the stated rates, not on these rows.
SMILES,DUX4 inh,DUX4 inh difference,DUX4 inh control
O=C(C[C@H]1CC[C@H]2[C@@H](COC[C@@H](O)CN2C(=O)Nc2cc(Cl)cc(Cl)c2)O1)N1CCCCC1,-5,-5,0.2
CN(C[C@@H]1[C@@H](c2ccccc2)[C@H](CO)N1C(=O)C1CCC1)C(=O)c1ccccn1,-7,-10,2.7
CO[C@@H]1CN(C)C(=O)c2ccc(NS(=O)(=O)c3ccccc3C)cc2OC[C@H](C)NC[C@H]1C,3,-6,8.5
CN(C)CC(=O)Nc1ccc2c(c1)[C@H]1C[C@@H](CC(=O)NCc3cccc(F)c3)O[C@H](CO)[C@H]1O2,0,-14,15
CN1c2ccc(-c3ccc(F)cc3)cc2[C@@H]2[C@@H](CCN2C(=O)c2ccccn2)[C@H]1CO,0,0,0.9
O=C(c1ccncc1)N1C[C@H]2[C@@H](c3ccccc31)[C@@H](CO)N2C(=O)Nc1cccc(F)c1,-2,-2,0.2
CCCNC(=O)C[C@@H]1CC[C@@H]2[C@H](COC[C@H](O)CN2C(=O)Nc2cccc(Cl)c2)O1,8,-6,13
O=C(c1ccccn1)N1CC[C@@H]2[C@H](CO)Nc3ccc(-c4ccccc4)cc3[C@@H]21,0,8,-8.0
COc1ccccc1NC(=O)N[C@H]1C=C[C@H](CC(=O)N[C@H](C)c2ccccc2)O[C@H]1CO,4,5,-1.0
CN(C)C(=O)c1cccc(-c2ccc3c(c2)[C@@H]2[C@@H](CCN2C(=O)C2CCC2)[C@@H](CO)N3)c1,?,.,.
O=C(c1cc2c(c(-c3cccc(Br)c3)n1)[C@H](CCO)NC2)N1CCCCC1,0,4,-3.9
CCNC(=O)[C@@H]1[C@@H](CO)[C@@H]2Cn3c(ccc(-c4ccncc4)c3=O)[C@@H]2N1Cc1ccc2c(c1)OCO2,-4,-5,0.8
CCCC#Cc1ccc([C@H]2[C@H](CO)N3CCCCN(CC4CCOCC4)C[C@@H]23)cc1,12,-6,18
CO[C@@H]1CN(C)C(=O)c2cc(NC(=O)C3CC3)ccc2OC[C@@H](C)N(Cc2cc(F)ccc2F)C[C@H]1C,?,.,.
COc1ccc(CN2CC3(CN(C(=O)c4ccccc4)C3)c3c([nH]c4cc(OC)ccc34)[C@H]2CO)cc1,?,.,.
COc1ccc(S(=O)(=O)Nc2ccc3c(c2)CC(=O)N([C@H](C)CO)C[C@H](C)[C@H](CN(C)CC2CC2)O3)cc1,5,6,-0.8
COc1ccc2c3c(n(C)c2c1)[C@H](CO)N(C(=O)C1CC1)CC31CCN(Cc2cccc(F)c2)CC1,?,.,.
COc1ccc2c3c([nH]c2c1)[C@@H](CO)N(S(C)(=O)=O)CC31CN(C(=O)c2ccncc2)C1,16,9,6.5
C[C@@H]1CN([C@H](C)CO)C(=O)c2cc(NC(=O)C3CCCCC3)ccc2O[C@@H](C)CCCCO[C@@H]1CN(C)CC1CCCCC1,-3,-5,1.8
CC=Cc1ccc2n(c1=O)C[C@H]1[C@H](CO)[C@@H](C(=O)NC3CCC3)N(CCC)[C@@H]21 (mixture of isomers),8,-7,14
COc1ccc2c3c([nH]c2c1)[C@@H](CO)N(C(=O)Cc1ccccc1)CC31CCN(C)CC1,19,-1,20
Cc1ccccc1CN(C)C[C@@H]1OCc2cn(nn2)CCCC(=O)N([C@@H](C)CO)C[C@H]1C,6,1,5.1
CN1C(=O)c2cc(NC(=O)C3CCOCC3)ccc2OC[C@@H]2O[C@H](CC(=O)NCc3ccccc3F)CC[C@@H]21,-3,-3,-0.4
O=C([C@H]1[C@H](CO)[C@H]2Cn3c(ccc(C4=CCCC4)c3=O)[C@@H]1N2C(=O)c1ccccc1)N1CCOCC1,5,1,4.2
O=C(Nc1ccc(-c2ccccc2)cc1)[C@@H]1[C@@H](CO)[C@@H]2Cn3c(cccc3=O)[C@H]1N2Cc1ccncc1,4,10,-6.3
O=S(=O)(c1ccc(F)cc1)N1CCCCN2[C@H](C1)[C@H](c1ccc(C3=CCCCC3)cc1)[C@@H]2CO,2,-9,10
O=C([C@@H]1[C@@H](CO)[C@@H]2Cn3c(ccc(C4=CCCC4)c3=O)[C@H]1N2)N1CCCCC1,2,-2,3.8
Cc1noc(C)c1S(=O)(=O)N(C)C[C@H]1Oc2c(NS(=O)(=O)c3cn(C)cn3)cccc2C(=O)N([C@H](C)CO)C[C@H]1C,-4,0,-3.2
C[C@@H]1CCCCO[C@@H](CN(C)Cc2ccccc2)[C@@H](C)CN([C@@H](C)CO)C(=O)c2cc(NC(=O)Nc3ccc(F)cc3)ccc2O1,5,3,1.2
CN(C)CC(=O)Nc1ccc2c(c1)[C@H]1C[C@H](CC(=O)NC3CCCCC3)O[C@H](CO)[C@H]1O2,3,7,-4.6
COc1cccc(-c2ccc3c(c2)[C@@H]2[C@@H](CCN2C(=O)CN(C)C)[C@H](CO)N3C)c1,1,-6,6.8
Cn1cnc(S(=O)(=O)N2CC[C@@H]3[C@H]2c2cc(-c4ccccc4F)ccc2N[C@@H]3CO)c1,-2,-5,2.6
COC(=O)[C@@H]1[C@@H](CO)[C@@H]2Cn3c(ccc(-c4cccc(F)c4)c3=O)[C@@H]2N1Cc1ccccn1,-5,1,-6.1
CN1c2ccc(-c3ccc(C#N)cc3)cc2[C@@H]2[C@@H](CCN2C(=O)C2CCCCC2)[C@H]1CO,-5,-9,3.9
CO[C@H](CN(C)S(=O)(=O)c1ccccc1)[C@@H](C)CN(Cc1ccccc1Cl)[C@H](C)CO,4,1,2.8
COc1cccc(-c2ccc3c(c2)O[C@@H](CN(C)Cc2cccnc2)[C@H](C)CN([C@H](C)CO)S3(=O)=O)c1,2,6,-4.5
O=C(Nc1ccccc1)N1CC(=O)N2[C@@H](CO)[C@H](c3ccc(-c4ccc(F)cc4)cc3)[C@@H]2C1,0,-6,5.8
COC(=O)c1ccc(CN2CC(=O)N3[C@H](CO)[C@H](c4ccc(-c5ccccc5)cc4)[C@H]3C2)cc1,3,-2,5.4
Cc1ccccc1-c1ccc([C@@H]2[C@@H](CO)N3CCCCN(C(=O)c4cccnc4)C[C@@H]23)cc1,-5,6,-10
O=C(C[C@H]1CC[C@H]2[C@@H](COC[C@H](O)CN2C(=O)c2ccncc2)O1)NCc1cc(F)cc(F)c1,2,-10,12
CCCC(=O)Nc1ccc2c(c1)OC[C@@H](C)N(CC1CCOCC1)C[C@H](C)[C@@H](OC)CN(C)C2=O,2,4,-1.6
C[C@H]1CN([C@@H](C)CO)C(=O)CCCn2cc(nn2)CO[C@@H]1CN(C)C,8,11,-2.8
C/C=C/c1ccc([C@H]2[C@@H](CNC(=O)c3ccncc3)N(C(C)=O)[C@H]2CO)cc1,-2,-2,-0.3
CN1C(=O)c2cc(NC(=O)C3CCOCC3)ccc2OC[C@H]2O[C@H](CC(=O)NCCc3ccncc3)CC[C@H]21,1,1,-0.4
O=C(C[C@H]1CC[C@H]2[C@@H](COC[C@@H](O)CN2C(=O)Nc2cccc(F)c2)O1)NCc1ccccc1Cl,1,-5,5.9
COc1ccc2c3c([nH]c2c1)[C@H](CO)N(C(=O)c1cnccn1)CC31CCN(S(C)(=O)=O)CC1,18,18,0.4
C/C=C/c1ccc2c(c1)[C@H]1[C@H](CCN1C(=O)c1ccc3c(c1)OCO3)[C@H](CO)N2,?,.,.
CCS(=O)(=O)Nc1ccc2c(c1)C(=O)N(C)C[C@H](OC)[C@@H](C)CN(C(=O)C1CCC1)[C@H](C)CO2,-5,-6,0.7
C/C=C/c1ccc2c(c1)O[C@H](CN(C)C(=O)Nc1ccc(OC)cc1)[C@H](C)CN([C@@H](C)CO)S2(=O)=O,-4,-4,-0.6
O=C(Nc1nccs1)[C@H]1[C@H](CO)[C@H]2Cn3c(cccc3=O)[C@H]2N1C(=O)C1CCCCC1,6,21,-15

# A portion from the list above:
SMILES,DUX4 inh,DUX4 inh difference,DUX4 inh control
COc1cccc(-c2ccc3c(c2)O[C@@H](CN(C)Cc2cccnc2)[C@H](C)CN([C@H](C)CO)S3(=O)=O)c1,2,6,-4.5
O=C(Nc1ccccc1)N1CC(=O)N2[C@@H](CO)[C@H](c3ccc(-c4ccc(F)cc4)cc3)[C@@H]2C1,0,-6,5.8
COC(=O)c1ccc(CN2CC(=O)N3[C@H](CO)[C@H](c4ccc(-c5ccccc5)cc4)[C@H]3C2)cc1,3,-2,5.4
Cc1ccccc1-c1ccc([C@@H]2[C@@H](CO)N3CCCCN(C(=O)c4cccnc4)C[C@@H]23)cc1,-5,6,-10
O=C(C[C@H]1CC[C@H]2[C@@H](COC[C@H](O)CN2C(=O)c2ccncc2)O1)NCc1cc(F)cc(F)c1,2,-10,12
CCCC(=O)Nc1ccc2c(c1)OC[C@@H](C)N(CC1CCOCC1)C[C@H](C)[C@@H](OC)CN(C)C2=O,2,4,-1.6
C[C@H]1CN([C@@H](C)CO)C(=O)CCCn2cc(nn2)CO[C@@H]1CN(C)C,8,11,-2.8
C/C=C/c1ccc([C@H]2[C@@H](CNC(=O)c3ccncc3)N(C(C)=O)[C@H]2CO)cc1,-2,-2,-0.3
CN1C(=O)c2cc(NC(=O)C3CCOCC3)ccc2OC[C@H]2O[C@H](CC(=O)NCCc3ccncc3)CC[C@H]21,1,1,-0.4
O=C(C[C@H]1CC[C@H]2[C@@H](COC[C@@H](O)CN2C(=O)Nc2cccc(F)c2)O1)NCc1ccccc1Cl,1,-5,5.9
COc1ccc2c3c([nH]c2c1)[C@H](CO)N(C(=O)c1cnccn1)CC31CCN(S(C)(=O)=O)CC1,18,18,0.4
C/C=C/c1ccc2c(c1)[C@H]1[C@H](CCN1C(=O)c1ccc3c(c1)OCO3)[C@H](CO)N2,?,.,.

# Remaining list, next part.
SMILES,DUX4 inh,DUX4 inh difference,DUX4 inh control
COc1cccc(-c2ccc3c(c2)[C@H]2[C@H](CCN2S(=O)(=O)c2ccccc2C)[C@@H](CO)N3)c1,-3,-14,11
C[C@H](CO)N1C[C@H](C)[C@@H](CN(C)C(=O)c2ccc3c(c2)OCO3)Oc2cc(-c3ccncc3)ccc2S1(=O)=O,-4,-2,-1.9
O=C(C[C@H]1C[C@H]2c3cc(NC(=O)Nc4ccccc4F)ccc3O[C@H]2[C@@H](CO)O1)NCc1ccccn1,-2,-3,1.0
COc1cc(CN2C[C@@H]3N[C@H](C2)C3c2ccc(/C=C/c3ccccc3)cc2)cc(OC)c1 (some centres not stated),?,.,.
C[C@@H]1CN([C@H](C)CO)C(=O)c2cc(NC(=O)C3CCCCC3)ccc2O[C@@H]1CN(C)Cc1ccc2c(c1)OCO2,-1,10,-11
CC(=O)N1C[C@@H]2[C@H](c3ccccc31)[C@@H](CO)N2C(=O)CC1CC1,1,1,0.2
Cc1cccc(NC(=O)Nc2ccc3c(c2)C(=O)N(C)[C@@H]2CC[C@@H](CC(=O)NCc4ccccc4Cl)O[C@H]2CO3)c1,0,0,-0.5
COc1ccccc1CN(C)C[C@@H]1OCc2ccccc2-c2c(n(C)c3ccccc23)C(=O)N([C@@H](C)CO)C[C@@H]1C,-32*,-29*,-2.4*
CC(C)OC(=O)N(C)C[C@H]1OCc2ccccc2-c2c(n(C)c3ccccc23)C(=O)N([C@H](C)CO)C[C@H]1C,1,-5,6.3
CN1C(=O)c2cc(NS(=O)(=O)c3cccc(F)c3)ccc2OC[C@H]2O[C@H](CC(=O)NCCN3CCCCC3)CC[C@H]21,-1,0,-1.0
CC(=O)N1CC2(C1)[C@H](c1ccccc1)[C@H](CO)N2S(=O)(=O)c1ccccc1,9,2,7.1
CNC(=O)C[C@H]1CC[C@@H]2[C@H](COc3ccc(NC(=O)Nc4ccc(F)c(F)c4)cc3C(=O)N2C)O1,-1,3,-3.8
O=C(C[C@H]1CC[C@@H]2[C@H](COC[C@H](O)CN2Cc2nccs2)O1)NCc1ccc(Cl)cc1,6,-9,15
C[C@H]1CN([C@@H](C)CO)C(=O)c2cc(N(C)C)ccc2O[C@H]1CN(C)C(=O)Nc1cccc2ccccc12,2,-4,6.0
COC(=O)C[C@@H]1CC[C@@H]2[C@H](COC[C@@H](O)CN2C(=O)Nc2ccccc2OC)O1,2,-7,9.8
COCCNC(=O)C[C@H]1C[C@@H]2c3cc(N(C)C)ccc3O[C@@H]2[C@@H](CO)O1,13,18,-5.2
CN1CCN(C(=O)C[C@@H]2CC[C@@H]3[C@H](COC[C@@H](O)CN3C(=O)Nc3ccc(Cl)cc3)O2)CC1,3,-9,12
O=C(C1CCCC1)N1CC2(C1)[C@H](c1ccccc1)[C@@H](CO)N2Cc1ccc(Cl)cc1,?,.,.
CNC(=O)C[C@@H]1CC[C@H]2[C@@H](COC[C@@H](O)CN2Cc2ccccc2F)O1,2,2,0.6
CCS(=O)(=O)Nc1ccc2c(c1)C(=O)N(C)[C@H]1CC[C@@H](CC(=O)N3CCN(C)CC3)O[C@H]1CO2,4,1,2.8
CCCC#Cc1ccc([C@@H]2[C@@H](CO)N3C(=O)CN(C(=O)Nc4ccccc4)C[C@H]23)cc1,7,3,3.4
COc1ccccc1CN1[C@@H](CO)[C@H](c2ccccc2)C12CN(C(C)=O)C2,-6,-10,4.3
C[C@@H]1CN([C@@H](C)CO)C(=O)CCCn2cc(nn2)CO[C@@H]1CN(C)S(=O)(=O)c1cccs1,-1,0,-0.9
COc1ccc(NC(=O)Nc2ccc3c(c2)[C@H]2C[C@H](CC(=O)NCC4CC4)O[C@@H](CO)[C@H]2O3)cc1,8,11,-3.6

# Screens as filed in PubChem BioAssay.
